# Assay outcomes (PubChem BioAssay)
# Calb FLC – affects C. albicans growth with fluconazole. C. albicans CaCi-2 (fluconazole-resistant clinical isolate) + fluconazole, Alamar Blue growth, 48 h. 0.57% of 300,000 active. growth inhibition, % (no concentration beside the values);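 active = most replicates above 75%; inconclusive = exactly half above 75%; inactive = most below 75%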;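 note: all wells also contain fluconazole at 8 µg/ml as a sub-toxic cotreatment; 0% = median of DMSO wells and 100% = median of geldanamycin control wells; wells of about 8 µL received 7.5 nL stock; the first replicate is given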
# UCH37 inh – blocks the human deubiquitinase UCH37. Q9Y5K5. AID 588478. purified proteasome/UCH37, Ub-AMC cleavage fluorescence. 0.33% of 330,000 active. inhibition, % (test concentration not listed);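 active = mean of two replicates above 20%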;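 note: 0% = compound-free wells with enzyme and 100% = wells lacking proteasome; stock transfer was 100 nL into about 20 µL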
#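 Signal – fluorescence, ex 355 nm, em 460 nm · System – Proteasome-bound UCH37 · Input – 0.15 nM proteasome as dispensed · Timing – 30 min preincubation with enzyme, 25 min cleavage at room temperature · Read-out basis – percent inhibition of cleavage signal versus uninhibited and no-proteasome wells · Medium – Tris-HCl pH 7.4 with ATP-MgCl2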
# Bfl-1 A1 inh – inhibitors of the anti-apoptotic protein A1, read as caspase activation; AID 2462; 0.066% of 330,000 active; caspase activation, % (test concentration not listed); MEF A1-2A-BIM cells, Caspase-Glo 3/7 luminescence, 3 h; percent of clofoctol response, vehicle zero;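 active = over half of replicate activation scores above 10%, or exactly half above 10 with the replicate mean above 10; inconclusive = replicate mean below 10 yet half the replicates above 10; inactive = over half of replicates below 10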;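 note: wells of about 30 µL received 50 nL stock; many hits fall short of the cut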
# Beta2AR agonist – human beta-2 adrenergic receptor agonism by FAP; Am2.2-beta2AR cells, FAP receptor internalization, flow cytometry; reference of the scale not given here; response, % (test concentration not listed); 0.43% of 340,000 active;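 active = response above a set limit, near 3 SD of response in nonfluorescent compounds, cut at about 42% in these data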;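 note: stock transfer was 100 nL into about 11 µL; a reference agonist was the positive control; negative values mostly stem from fluorescent compounds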
# LANA-H2A inh – blocks KSHV LANA binding to histone H2A/H2B | cell-free LANA-H2A/H2B peptide, fluorescence polarization | inhibition, % (concentration not given with the values) | 0.6% of 320,000 active | AID 2629; in the data active = inhibition mostly above about 10%, no sharp cut-off; inactive = mostly below about 6.7%;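 note: stock transfer was 7.5 nL into about 10 µL; 0% = median of vehicle wells and 100% = median of positive control wells; one replicate is shown; the record names a cut of 25% in any replicate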
# Target sequence (Q9QR71 whole entry, looked up): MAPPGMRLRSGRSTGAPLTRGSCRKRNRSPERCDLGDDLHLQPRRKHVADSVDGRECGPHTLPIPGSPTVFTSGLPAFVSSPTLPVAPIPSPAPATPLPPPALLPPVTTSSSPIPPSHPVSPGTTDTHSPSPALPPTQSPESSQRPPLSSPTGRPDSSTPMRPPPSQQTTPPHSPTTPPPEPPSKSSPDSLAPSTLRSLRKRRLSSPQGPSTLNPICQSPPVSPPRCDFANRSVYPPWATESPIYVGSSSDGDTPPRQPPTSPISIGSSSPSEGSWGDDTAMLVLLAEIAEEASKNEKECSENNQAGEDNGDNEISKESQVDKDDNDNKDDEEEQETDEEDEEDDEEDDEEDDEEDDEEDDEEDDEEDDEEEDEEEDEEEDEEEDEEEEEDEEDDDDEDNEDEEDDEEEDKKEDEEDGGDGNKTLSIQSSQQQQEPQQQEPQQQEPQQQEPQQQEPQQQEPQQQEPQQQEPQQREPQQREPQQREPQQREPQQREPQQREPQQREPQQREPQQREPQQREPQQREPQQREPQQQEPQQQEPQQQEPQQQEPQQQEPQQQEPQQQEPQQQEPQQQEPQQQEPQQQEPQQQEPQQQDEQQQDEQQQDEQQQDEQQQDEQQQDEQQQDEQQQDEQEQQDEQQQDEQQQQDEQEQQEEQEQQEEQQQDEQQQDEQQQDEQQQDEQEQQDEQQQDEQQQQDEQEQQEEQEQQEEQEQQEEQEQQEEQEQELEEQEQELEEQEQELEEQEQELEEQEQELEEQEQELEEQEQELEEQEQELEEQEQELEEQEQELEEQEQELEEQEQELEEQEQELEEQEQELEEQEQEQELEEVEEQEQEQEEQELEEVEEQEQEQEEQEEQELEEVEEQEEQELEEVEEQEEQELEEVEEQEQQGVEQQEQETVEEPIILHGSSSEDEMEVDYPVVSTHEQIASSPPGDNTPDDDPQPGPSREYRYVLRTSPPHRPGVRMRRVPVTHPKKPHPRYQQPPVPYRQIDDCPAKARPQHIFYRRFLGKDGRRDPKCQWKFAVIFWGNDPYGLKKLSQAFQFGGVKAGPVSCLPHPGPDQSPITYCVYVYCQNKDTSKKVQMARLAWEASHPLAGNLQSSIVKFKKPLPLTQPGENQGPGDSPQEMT
# RanGTP-Imp inh – inhibitors of RanGTP-importin-beta interaction, primary screen, biochemical, FRET, CFP-Ran, YFP-importin-beta, homogeneous; cell-free CFP-Ran/YFP-importin-beta FRET ratio; inhibition, % (no concentration beside the values); 1.1% of 300,000 active; AID 2216;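 active = most replicates above 15%; inconclusive = exactly half above 15%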;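 note: 0% = DMSO wells and 100% = Ran loaded with GDP instead of GTP; wells of about 40 µL received 100 nL stock; the first replicate is given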
# T cruzi repl – blocks replication of Trypanosoma cruzi | inhibition, % (concentration not given with the values) | T. cruzi beta-gal in NIH3T3, luminescence, 90 h | 1.4% of 300,000 active;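 active = mean inhibition across valid replicates above about 55%, limit read from the data; inconclusive = mean below that limit but half or more replicates reach it; inactive = mean below it, under half of replicates reach it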;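 note: signal also drops with host cell toxicity which is not excluded here; 0% = plate median of DMSO wells and 100% = zero luminescence signal; higher percent means less beta-gal luminescence so fewer parasites; stock transfer was 50 nL into about 50 µL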
# Beta cell apopt – beta cell apoptosis inhibition. INS-1E cytokine-induced death, ATP luminescence, 48 h; percent of positive-control rescue, neutral wells zero. protection from apoptosis, % (no concentration beside the values). 0.8% of 300,000 active;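 active = all replicates at 75% or more, or half of them and the mean; inconclusive = half reach 75% but not the mean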;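 note: 0% = cytokine-treated negative control wells and 100% = positive control rescue; higher means more ATP so stronger rescue from cytokine killing; wells of about 40 µL received 100 nL stock; the first replicate is given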
# Numbers without * were called inactive; ? = inconclusive; nt = not tested or not shown.
# Value order: Calb FLC	UCH37 inh	Bfl-1 A1 inh	Beta2AR agonist	LANA-H2A inh	RanGTP-Imp inh	T cruzi repl	Beta cell apopt
> COC(=O)c1ccc(NC2(C#N)C(=O)Nc3ccccc32)cc1 (configuration not stated)
→ 0.2	2.0	2.6	8.9	-1.7	-2.6	-19.7	-6.5
> COc1ccc(-n2c3c(cc(C(=O)NC4CCSC4=O)c2=O)C(=O)CC(C)(C)C3)cc1 (configuration not stated)
→ 31.2	-7.6	0.3	-30.1	-1.3	?	7.5	-3.2
> COc1ccc(N2C(=O)CCC2=O)c(OC)c1
→ 35.9	0.7	0.5	0.7	2.1	-3.3	-13.9	-3.0
> Cc1cc(=O)[nH]c(N/N=C/c2ccccc2Cl)n1
→ 5.0	nt	-3.3	20.2	2.1	2.2	-5.0	-3.3
> CC(Oc1ccc(Cl)cc1Cl)/C(N)=N/O (configuration not stated)
→ 5.9	2.2	0.2	-2.6	2.9	2.1	-0.4	-3.7
> CCOc1ccccc1OC(=O)c1cc2ccccc2oc1=O
→ 3.7	1.6	1.2	-1.9	-5.4	-1.4	-2.7	-0.7
> O=C(Cc1cccc2ccccc12)NN1C(=O)/C(=C\c2cccnc2)SC1=S
→ -6.3	7.6	1.2	1.3	0.8	-1.1	-0.9	-5.4
> CC(C(=O)Nc1ccc2nccnc2c1)N1C(=O)C2C3C=CC(C3)C2C1=O (configuration not stated)
→ 0.5	-199.1	0.9	2.0	-5.3	4.5	-19.7	-8.1
> O=C(Cn1c(=O)n(Cc2ccc(F)cc2)c(=O)c2ccccc21)NCC1CCCO1 (configuration not stated)
→ -3.0	-281.5	0.4	-2.2	-11.5	4.4	-4.4	-0.2
> COC(=O)N1[C@H](C)C=C[C@]1(Cc1ccccc1)C(=O)O
→ -3.3	5.1	1.5	-2.7	0.4	0.3	-4.5	0.3
> CC(C)(C)N(Cc1ccccc1)C(=O)COC(=O)c1ccc2ccccc2n1
→ nt	1.2	-0.3	-2.3	4.7	nt	nt	5.6
> CCCCCC[N+](C)(C)CC/C=C1/c2ccccc2Sc2ccc(Cl)cc21
→ -4.6	6.7	1.1	9.2	-2.8	?	46.4	25.8
> CN1CCN(c2ccc(NC(=O)c3cc4ccccc4o3)cc2)CC1
→ -12.7	8.3	-0.1	-7.0	-2.8	?	34.8	1.9
> COc1ccc(-c2cc(C(=O)Nc3cc(Br)ccc3O)no2)cc1
→ 3.8	1.6	-0.8	13.6	-3.3	0.3	-9.9	-12.2
> CCN(CC)S(=O)(=O)c1cccc(-c2nnc(SCc3ncc(-c4ccccc4)o3)n2C)c1
→ 9.5	-1.0	-0.2	1.2	1.3	0.1	5.6	0.8
> COc1ccccc1NC(=O)CN1C(=O)NC(CC(C)C)C1=O (configuration not stated)
→ -4.7	-0.2	-0.3	-4.1	1.5	4.2	-6.0	-6.0
> COc1cccc(/C=N/NC(=O)N/N=C/c2cccc(OC)c2O)c1O
→ 13.8	nt	-0.1	13.7	-6.1	1.6	4.3	6.8
> O=C(CSc1nnc(-c2cccnc2)n1Cc1ccco1)c1ccc(Br)cc1
→ ?	0.1	-0.6	-8.2	-2.8	7.6	0.3	-9.4
> Cc1ccc(OCC(=O)NC(=S)Nc2ccc(S(=O)(=O)Nc3cc(C)on3)cc2)c(Br)c1
→ 1.7	3.7	-0.4	13.4	-4.4	?	-2.5	-9.7
> Cc1cc(C)n(C(=O)CNC(=O)C2COc3ccccc3O2)n1 (configuration not stated)
→ 4.1	0.7	-0.4	0.2	1.2	2.0	-20.3	-2.9
> Cc1ccc(OCc2ccccc2C)c([N+](=O)[O-])n1
→ 8.0	3.1	-0.2	-7.2	1.5	-3.1	nt	-3.7
> Cc1ccc(CN2CC(C(=O)Nc3cccc(C)n3)CC2=O)cc1 (configuration not stated)
→ 4.5	0.6	0.3	4.0	1.3	2.8	0.5	-5.5
> CC(=O)Nc1ccccc1NC(=O)c1ccccc1
→ -1.3	-1.0	-0.4	-2.7	18.0	3.6	-7.6	1.6
> CCC(COC)NCc1cn(-c2ccc(OC)cc2)nc1-c1cccc(F)c1 (configuration not stated)
→ -1.8	3.0	0.1	-121.3	-0.5	-0.2	13.3	1.1
> COc1ccc(NC(=O)C2CCN(c3cnccn3)CC2)cc1OC
→ 2.0	-5.3	0.2	-6.2	0.3	1.7	5.5	-5.8
> CCN(Cc1ccccc1)C(=O)c1[nH]c2ccc(OC)cc2c1C
→ 0.3	-1.3	nt	-8.0	nt	0.8	15.8	nt
> CCCCCC(=O)Nc1c2c(nc3ccccc13)CCC2
→ 9.9	4.5	0.7	-6.1	-3.3	-0.9	-11.4	nt
> CCCN(C(=O)c1nc2nccc(C)n2n1)c1c(N)n(Cc2ccccc2)c(=O)[nH]c1=O
→ nt	2.1	1.2	-0.2	-1.7	nt	nt	-6.2
> O=C(CSc1nc(Nc2ccccc2)nc(N2CCOCC2)n1)N1CCc2ccccc21
→ 10.4	-1.5	0.1	-3.1	-3.0	-0.6	45.0	6.8
> CCOc1ccccc1C(=O)NC(C(=O)NCc1ccc(F)cc1)C(C)C (configuration not stated)
→ -44.9	0.3	1.3	-4.0	1.2	-2.7	12.8	2.4

# The results go on.
# Value order: Calb FLC	UCH37 inh	Bfl-1 A1 inh	Beta2AR agonist	LANA-H2A inh	RanGTP-Imp inh	T cruzi repl	Beta cell apopt
> COc1ccc(/C=C/C(=O)c2c(C)nc3ccccn23)cc1
→ -1.2	5.9	-0.7	29.6	-1.2	0.5	52.3	nt
> CC1(C)CC(=O)C2=C(C1)Nc1ccccc1S2
→ -27.2	nt	0.6	-4.3	-2.4	2.5	-11.1	6.1
> COc1cc(NC(=O)c2nnn(Cc3ccc(SC)cc3)c2N)cc(OC)c1
→ 1.6	-0.2	0.6	0.0	-4.1	-1.8	38.1	17.3
> O=C1c2ccccc2C(O)(c2ncc[nH]2)N1CCc1ccccc1 (configuration not stated)
→ -3.2	3.1	-0.1	-0.2	-0.3	2.0	-13.2	-3.3
> CCOc1ccc(NC(=O)c2ccc(S(=O)(=O)N3CCOCC3)cc2)cc1
→ -3.1	0.6	0.3	0.5	-0.8	3.3	5.4	0.5
> Cc1ccc(C(=O)NCC(=O)Nc2ccc(C)c(S(=O)(=O)Nc3ccc(Cl)cc3)c2)s1
→ -18.7	-0.6	0.5	8.7	2.4	-0.5	18.9	-2.0
> Cc1ccc(Cc2cnc(NC(=O)C3CCCO3)s2)cc1 (configuration not stated)
→ 6.2	0.3	-0.1	7.7	-2.6	-3.5	0.8	-11.3
> COC(=O)c1ccccc1S(=O)(=O)C(C)(C)C
→ 17.3	3.4	-0.6	2.4	1.3	-4.0	-2.7	-6.6
> C[C@H](CO)N1C[C@H](C)[C@H](CN(C)S(=O)(=O)c2ccccc2)Oc2ccc(NC(=O)NC3CCCCC3)cc2CC1=O
→ nt	1.6	0.0	1.3	3.7	nt	nt	-7.5
> Cc1nc(-c2ccc(Cl)cc2)sc1C1(C)CC(c2ccc(Br)cc2)=NO1 (configuration not stated)
→ 1.6	0.5	-0.4	-4.1	-10.2	7.3	-6.2	-1.3
> COc1ccc(NC2CCCN(C(=O)CCc3cccc(F)c3)C2)cc1 (configuration not stated)
→ -12.4	3.5	-0.2	0.9	-3.7	2.2	3.9	0.3
> Cc1cccn2cc(CCNC(=O)c3ccc(Br)o3)nc12
→ -2.9	-1.3	0.5	-3.6	1.5	?	6.5	-0.9
> COc1ccccc1CCC(=O)OCC(=O)Nc1ccc(C)c(S(=O)(=O)N2CCCCC2)c1
→ 4.9	-0.4	-0.3	-1.5	-6.6	?	-11.4	1.7
> CCNC(=S)NNC(=O)c1ccccc1Cl
→ 2.2	-1.1	-0.7	2.1	nt	6.1	-18.2	-3.3
> COc1ccc(-c2cc3nc(CCl)[nH]c(=O)c3s2)cc1
→ 32.9	nt	0.0	-1.5	0.6	-1.8	-39.0	3.7
> O=C(Cn1nc(-c2ccc(Cl)cc2)c2ccccc2c1=O)Nc1cccnc1
→ -20.3	3.2	-0.2	-13.9	0.3	-2.4	28.4	2.8
> COc1ccc(NC(=O)c2cccnc2NCCc2ccccc2)cc1
→ -6.1	-6.5	1.2	-16.9	-6.2	0.7	22.2	-2.9
> C=CCNC(=O)/C(=C\c1ccc(Br)cc1)NC(=O)c1ccccc1OC
→ 10.4	3.3	0.0	-8.7	-0.2	3.1	-2.6	-2.0
> O=C(O)c1cc2c(cc1NC(=O)c1ccccc1OC(F)F)OCCCO2
→ 0.0	2.6	0.5	-4.0	1.2	1.6	-0.4	-0.6
> Cc1ccccc1S(=O)(=O)Cc1ccc(C(=O)NCc2ccccc2)o1
→ -11.0	-0.6	0.0	1.9	-2.2	4.7	6.4	-3.9
> COc1ccc(C(=O)C2CCCN(Cc3c(F)ccc(F)c3F)C2)c(OC)c1 (configuration not stated)
→ -1.7	2.8	0.9	-5.2	5.4	5.4	20.9	nt
> COc1ccc(NC(=S)Nc2ccc(F)cc2)c(OC)c1
→ 0.4	2.7	0.8	1.4	0.6	-4.9	0.8	-1.6
> NS(=O)(=O)c1ccc(N2CCN(C(=O)c3ccco3)CC2)nc1
→ nt	1.0	0.0	-0.7	-0.6	nt	nt	2.6
> Cc1ccc(OC(=O)c2cc(=O)c3ccccc3o2)cc1
→ ?	5.8	2.4	1.1	-6.8	?	-2.2	-4.7
> Cc1[nH]c(C)c(S(=O)(=O)Nc2ccccc2)c1C(=O)N1CCCC1
→ -15.5	1.3	-1.8	-6.0	1.8	-1.6	-3.1	-1.7
> CCCCCn1c(SCc2cccc(C)c2)nc2c1c(=O)[nH]c(=O)n2C
→ 11.8	2.9	-1.1	-10.7	4.8	4.7	48.1	6.3
> O=c1[nH]c(C2CCN(S(=O)(=O)c3ccc(S(=O)(=O)NC4CC4)cc3)CC2)nc2c1nnn2Cc1cccc(F)c1
→ 2.1	2.8	-0.1	12.2	-0.4	-2.9	1.7	nt
> COc1ccc(CCNC(=O)/C=C/C(=O)O)cc1
→ -14.7	2.2	1.3	-3.0	0.8	1.1	3.9	0.1
> CCS(=O)(=O)N1CCN(c2ccc(Cl)cc2[N+](=O)[O-])CC1
→ 4.8	3.8	0.6	-6.7	6.6	?	7.2	3.8
> COc1ccc(NC(=O)NCCCCc2ccccc2)c(OC)c1
→ -4.6	1.3	-0.3	-3.0	1.3	-5.1	6.7	-8.0

# Later entries:
# Value order: Calb FLC	UCH37 inh	Bfl-1 A1 inh	Beta2AR agonist	LANA-H2A inh	RanGTP-Imp inh	T cruzi repl	Beta cell apopt
> CCc1ccc(S(=O)(=O)Nc2c(C)nc3nc[nH]n3c2=O)cc1
→ 18.3	0.3	0.4	12.6	-6.8	-4.8	-6.9	-3.3
> COc1cccc(NC(=O)CSCC(=O)O)c1
→ -9.4	0.4	0.6	5.4	4.6	1.3	-15.4	nt
> Fc1ccc(NC(=S)Nc2cc(Cl)ccc2Cl)cc1
→ -7.3	1.4	0.3	0.3	0.2	4.2	-13.4	-3.2
> CC(=O)Nc1ccc2[nH]ccc2c1
→ -8.8	2.8	0.5	1.5	3.3	0.2	-12.1	-3.3
> CCOc1ccc(CN2CCN(C(=O)c3cccc(F)c3)CC2)cc1
→ -2.5	1.4	-0.2	3.9	3.1	4.1	4.7	-0.3
